# Rango dissoc inh: inhibitors of RanGTP-induced Rango-importin beta complex dissociation | O95149+P62826 | Biochemical FRET Rango-importin beta, RanGTP-induced dissociation | Potency, µM (highest dose often 46.1 µM), for the others: at the highest dose activity change, negative = inhibition | 340,000 tested, 0.071% active | AID 540253; active means falling FRET ratio curve, often poorly fitted, with flat reads before Ran was added; inconclusive means other falling curves, or compound fluorescence or quenching; inactive means flat or rising ratio curve;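 note: potency is the fitted concentration of half-maximal effect; % of control where 0% means no effect; nearly all actives have a fitted effect of over 45% in size; -100% = wells without RanGTP and RCC1; the record marks most hits as doubtful in a second field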
#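 Rango/importin beta premix (0.1/0.25 uM final), PBS + 1 mM DTT + 0.02% Tween-20 + 0.1% BSA; cpd 5 min RT; FRET pre-read; + RanGTP-RCC1 (0.6 uM Ran, 2 mM GTP, 0.2 uM RCC1); 45 min RT; FRET post-read, ex 430, em 486/530 nm.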
# Rango complex inh: prevents formation of the Rango-importin beta complex | Rango CFP/YFP FRET sensor + importin beta, 45 min | 340,000 tested, 0.031% active | Potency, µM (titrated, usually from 92.2 µM), inactives show at the highest dose inhibition of complex formation | Q14974 | AID 540263; active = rising FRET ratio curve, often small or poorly fitted; inconclusive = mostly compound fluorescence or quenching in the first reads; inactive = flat curves in all reads;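 note: potency is the fitted concentration of half-maximal effect; 0% = DMSO wells and 100% = buffer wells lacking importin beta; nearly all actives have a fitted effect of over 15% in size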
# Target sequence (Q14974 whole entry, looked up): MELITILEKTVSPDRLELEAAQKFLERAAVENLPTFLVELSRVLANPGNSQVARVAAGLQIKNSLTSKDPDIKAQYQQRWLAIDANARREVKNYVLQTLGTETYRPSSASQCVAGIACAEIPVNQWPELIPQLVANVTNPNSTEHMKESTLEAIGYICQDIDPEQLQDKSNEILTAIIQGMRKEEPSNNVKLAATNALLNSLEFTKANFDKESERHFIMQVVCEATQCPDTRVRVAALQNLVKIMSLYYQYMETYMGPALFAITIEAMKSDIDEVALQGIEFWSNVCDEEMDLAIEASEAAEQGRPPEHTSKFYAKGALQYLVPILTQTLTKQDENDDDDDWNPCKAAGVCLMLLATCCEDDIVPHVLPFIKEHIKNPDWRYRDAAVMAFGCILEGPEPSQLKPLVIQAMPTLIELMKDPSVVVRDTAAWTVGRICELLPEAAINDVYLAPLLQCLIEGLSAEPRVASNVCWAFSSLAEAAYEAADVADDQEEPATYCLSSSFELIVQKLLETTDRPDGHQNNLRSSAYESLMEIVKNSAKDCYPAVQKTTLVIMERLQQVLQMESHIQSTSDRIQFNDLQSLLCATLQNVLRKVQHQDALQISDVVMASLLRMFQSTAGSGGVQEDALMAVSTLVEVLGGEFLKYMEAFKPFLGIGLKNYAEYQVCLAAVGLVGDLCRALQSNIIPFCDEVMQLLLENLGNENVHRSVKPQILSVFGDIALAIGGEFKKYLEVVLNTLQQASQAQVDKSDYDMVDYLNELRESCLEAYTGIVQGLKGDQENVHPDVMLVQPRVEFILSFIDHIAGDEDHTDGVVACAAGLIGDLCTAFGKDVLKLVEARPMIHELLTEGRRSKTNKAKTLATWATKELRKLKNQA
#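 Inhibition scored from the CFP 486 nm/YFP 530 nm FRET ratio 45 min after adding 0.125 microM importin beta to 50 nM Rango biosensor preincubated 5 min with compound (room temperature, PBS with DTT, Tween-20, BSA). No-importin wells as positive control.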
# GLA inh pH 4.5: alpha-galactosidase A (human) inhibition, pH 4.5. 230,000 tested, under 10 active. activity change, negative = inhibition, % at 105 µM. purified enzyme, 4-MU-alpha-Gal fluorescence, pH 4.5. P06280; inconclusive = small, poorly fitted or top-dose-only inhibition, or a rising curve; inactive = flat fitted curve, though single readings scatter; no compound was filed as active;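 note: 0% = full activity with enzyme and -100% = basal without enzyme; dose as in the result columns while the protocol names 77 µM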
# miR-21 reporter: miR-21 reporter, rising signal | HeLa miR-21 FLuc reporter, luciferase, 48 h | Potency, µM (series often up to 38.3 µM), for the others: top-dose reporter change, positive = more light | 340,000 tested, under 10 active | AID 2288; active = well fitted rising curve with a large enough effect; inconclusive = small, poorly fitted or top-dose-only effect; inactive = no such curve, though single readings can be large or run the other way;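 note: % of control where 0% means no effect; miR-21 action dims this reporter so a rising signal means less miR-21 action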
#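 HeLa cells stably expressing CMV-driven firefly luciferase with a downstream miR-21 binding sequence, endogenously expressing miR-21, were treated with titrations (up to about 40uM final) for 48 hours at 37 degree Celsius. Luciferase luminescence was read after lysis.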
# * hit, by the source's call; ? = inconclusive; . = no result given; & = joins results of further samples; [ ] = remark or other dose. Only part of the results is shown (hit frequency here may not be typical).
Rango dissoc inh,Rango complex inh,GLA inh pH 4.5,miR-21 reporter,canonical_smiles
1%,-1.6%,.,.,CC(C)c1ccc(S(=O)(=O)N2CCN(C(=O)CN3C(=O)NC4(CCCCC4)C3=O)CC2)cc1
1%,1.0%,-2,-12%,N#Cc1ccsc1NC(=O)CSc1nnnn1-c1ccc(O)cc1
-22%,?,8,-1%,CSCCc1nc(SCC(=O)Nc2nnc(C)s2)[nH]c1C
0%,0.5%,.,-5%,O=C(NNc1cc(C(F)(F)F)ccc1Cl)c1ccc(=O)[nH]c1
6%,1.1%,-1[21.1 µM],-3%,Cc1ccc(N2C(SCC(=O)O)=NC(=Nc3cccc(C)c3)C23CCCC3)cc1
1%,-3.1%,-2,-5%,CCOC(=O)Cn1cc(C#N)c2cccc(CC)c21
-2%,-1.8%,.,-17%,CCOc1ccc(-c2nc(CN3CCCC(C(=O)N4CCOCC4)C3)c(C)o2)cc1 (stereo not given)
-2%,0.3%,1,19%,CC(O)CN1C(=O)C(CC(=O)Nc2ccc(Cl)cc2)SC1=Nc1ccccc1 (stereo not given)
33%,0.2%,5,-2%,O=C(O)CSc1ccnc2cc(Cl)ccc12
22%,-2.0%,3,-25%,O=C(Nc1ccccc1)Nc1scc2c1c(=O)oc1ccccc12
0%,2.3%,.,-1%,CCOc1ccc(C(=O)NCc2ccco2)cc1OC
2%,-1.4%,-1,-11%,CC(C)OC(=O)/C(=C/c1cccnc1)NC(=O)c1ccccc1
-9%,3.5%,-1,-41%,COc1c(OC)c(O)c2c(=O)cc(-c3c(O)cccc3O)oc2c1OC
-23%,-3.3%,2,-32%,CNc1sc(C(=O)c2ccccc2F)c(N)c1-c1nc2ccccc2s1
-3%,-0.5%,-27,-15%,COC(=O)c1ccc(C(=O)N2CCCC(CNC(=O)c3ccccc3Cl)C2)cc1 (stereo not given)
3%,-0.8%,.,1%,CC(C)CCNC(=O)CN(Cc1ccccc1)C(=O)CCC(=O)Nc1nccs1
-4%,6.0%,.,-28%,O=C1ON=C(c2ccccc2)/C1=C/c1ccc(O)c(O)c1
.,.,12,-2%,COc1ccccc1C(=O)Nc1cc2c(ccc3ccccc32)oc1=O
7%,-5.7%,.,-3%,COc1cccc(NC(=O)COc2ccc(C(=O)N3CCN(C)CC3)cc2)c1
1%,1.2%,-5,-3%,CC(=O)N(C)c1ccc(NC(=S)Nc2ccc(C(C)C)cc2)cc1
2%,-0.7%,-4,2%,CC(C)CCn1cnc2c1c(=O)n(C)c(=O)n2C
11%,-1.3%,-7,-11%,COc1cc(C2SCC(=O)N2c2c(C)n(C)n(-c3ccccc3)c2=O)ccc1O (stereo not given)
38%,-1.3%,.,.,CC(NC(=O)CN1C(=O)NC2(CCCCCC2)C1=O)c1ccccc1 (stereo not given)
-11%,4.5%,-6,-13%,Cc1cccc(OCCSc2nnc(-c3ccoc3C)n2C)c1
0%,2.0%,4,-17%,O=C(CCn1cccc1)Nc1ccccc1F
-20%,2.3%,2,-11%,COC(=O)Nc1sc(C(=O)N(C)C)c(C)c1C(=O)OC
-9%,-1.3%,7,-1%,Cc1cccc(C)c1NC(=O)CSc1nnc(CCCCCNC(=O)OC(C)(C)C)o1
1%,0.1%,-2,-10%,Cc1ccccc1-c1ccc(Nc2ccc(C(=O)N3CCOCC3)cc2)nn1
2%,-0.9%,-5,11%,COc1ccccc1C(O)P(=O)(OC1CCCCC1)OC1CCCCC1 (stereo not given)
-13%,-1.3%,8,-6%,CNC(=O)c1nc(C)c(C2(C)CC(c3ccccc3)=NO2)s1 (stereo not given)
0%,-0.3%,-9,-1%,CCOc1cc([C@H]2[C@@H]3CCCC[C@]3(O)CCN2CC(=O)NCc2ccco2)ccc1O
5%,-0.1%,.,-3%,CCSc1nc(N)c(NC(=O)c2ccc(Br)o2)c(=O)[nH]1
-2%,-3.8%,-7,-3%,CCOC(=O)C(=O)N1c2ccccc2C(N(C(=O)C(=O)OCC)c2ccccc2)CC1C (stereo not given)
-4%,-2.4%,-2,0%,CCn1c(CNC(=O)c2cccc(C)c2)nnc1SCC(=O)Nc1cccc(OC)c1
15%,0.0%,.,-1%,CC(=O)c1ccc(N(CC(=O)NCc2ccc3c(c2)OCO3)C(=O)c2csnn2)cc1
-22%,-1.6%,.,.,CC(C)n1ncc2c(C(=O)NCCc3ccc(F)cc3)cc(C3CC3)nc21
4%,-1.8%,0,-27%,COc1ccc2c(c1OC)C(=O)N1N=C(c3ccc(Cl)cc3)CC21 (stereo not given)
15%,0.7%,4,-16%,O=C(COc1ccc(C(=O)NCCc2ccccc2)cc1)Nc1ccccc1
?,0.4%,.,2%,N#Cc1cccc(C(=O)OCC(=O)NCc2ccco2)c1
-21%,2.3%,-8,-45%,COc1ccc(NC(=O)/C=C/c2ccccc2)c([N+](=O)[O-])c1
1%,1.0%,11,-2%,NC(=O)C1CCN(CCC(=O)Nc2cccc(Cl)c2)CC1
-2%,-0.2%,-7&0,0%,COC(=O)c1cccc(C23CC4(C2)[C@H](CN(CC2CCCCC2)[C@@H]4c2ccccc2)C3c2ccccc2)c1 (stereo not given in full)
19%,5.2%,.,-28%,O=C(CSc1nnc(-c2ccccn2)o1)Nc1ccccc1Cl
2%,?,-4,-6%,CCCCC(=O)Nc1ccc2c3c(cccc13)C(=O)N2CC
0%,7.9%,-2,-7%&-9%,Cc1ccc(-n2c(-c3ccco3)nc3c(cnn3-c3ccc(C)cc3)c2=O)cc1
7%,-3.5%,.,9%,COc1ccc(CCNC(=O)CCCOc2ccc(Cl)cc2)cc1OC
7%,2.2%,.,.,O=C(COC(=O)CNC(=O)c1ccccc1)NCc1ccc2c(c1)OCO2
0%,-9.3%,7,4%,CCO[C@@H]1OC(C(=O)N2CCN(Cc3ccccc3)CC2)=C[C@H](C2CC2)[C@H]1CCCO
3%,-1.3%,10,0%,CCn1c(SCC(N)=O)nnc1-c1ccc2c(c1)OCO2
-3%,-3.6%,.,-6%,Cc1cc(-c2ccc(C)c(S(=O)(=O)Nc3ccc(S(N)(=O)=O)cc3)c2)on1

# Other records follow.
Rango dissoc inh,Rango complex inh,GLA inh pH 4.5,miR-21 reporter,canonical_smiles
3%,-3.3%,-4,?,COc1ccc2nc(NC(=O)C3CCN(S(=O)(=O)c4cccc5nsnc45)CC3)sc2c1
1%,5.7%,.,.,CC(C)Oc1ccc(S(=O)(=O)N2CCOCC2)cc1NC(=O)C1CCCCC1
-12%,0.6%,.,-11%,O=C(OCCN1CCOCC1)c1ccc(O)cc1
.,.,-7,10%,Cc1cc(C)c2cc(CN(CCO)C(c3nnnn3Cc3ccc(F)cc3)C(C)C)c(=O)[nH]c2c1 (stereo not given)
-9%,3.7%,7,14%,Cc1onc(-c2ccccc2)c1C(=O)NNC(=S)NC(=O)/C=C/c1ccccc1
-20%,3.9%,.,.,CCN1C[C@@H]2[C@@H]3C(=O)N(Cc4ccccc4)C(=O)[C@@H]3[C@](CC)(C1=O)N2C(=O)c1ccccc1
-3%,0.1%,-10,-3%,O=C(c1ccco1)N1CCN(C(=O)c2cc3sccc3n2Cc2ccccc2)CC1
11%,5.3%,.,.,COc1cc(OC)c(N(C)S(=O)(=O)c2cccc(C(=O)OCC(=O)N(C)C3CCCCC3)c2)cc1Cl
-11%,-2.0%,-1,-14%,N#CC1=C(N)S[C@H](C(=O)C23CC4CC(CC(C4)C2)C3)[C@H]1c1ccncc1
-22%,-2.7%,5,-41%,COc1ccc2nc(Cl)c(/C=N/Nc3ccccn3)cc2c1
-4%,-1.1%,10,-16%,N/C(CC1CC1(Cl)Cl)=N\OC(=O)c1ccccc1 (stereo not given)
-8%,0.1%,.,.,C[C@@H]1CN([C@@H](C)CO)C(=O)c2cc(NC(=O)Nc3ccc(F)cc3)ccc2O[C@@H]1CN(C)Cc1ccc(Oc2ccccc2)cc1
-9%,?,-2,-3%,CCN1CCN(C(=O)/C=C/c2ccc(C)o2)CC1
?,?,.,-7%,CNC(=O)/C(C#N)=C/c1c(N2CCCCCC2)nc2c(C)cccn2c1=O
-16%,-1.0%,1,4%,CCOC(=O)c1ccc2c(c1)n(CC)c(/C=C/Nc1ccccc1)[n+]2CC
6%,-4.1%,8,-3%,C=CCNc1nc(NCCN2CCOCC2)nc(OC)n1
-5%,-0.6%,.,.,CCOc1ccc(NC(=O)CN2CCN(c3ccccc3C)CC2)cc1S(=O)(=O)N1CCCC1
7%,0.5%,-6,-11%,COc1ccc2nc3oc(C(=O)N4CCN(c5cccc(C(F)(F)F)c5)CC4)cc3cc2c1
13%,-1.8%,-6,2%,CCc1ccc(OCC(=O)N/N=C/c2ccc(OS(=O)(=O)c3ccc(C)cc3)c(OC)c2)cc1
19%,-6.3%,-3,15%,CCN(CC)c1ccc(C(=O)N/N=C(\C)c2ccc(O)cc2)cc1
-3%,-1.1%,.,.,C[C@@H](NC(=O)C(=O)c1c[nH]c2ccccc12)c1ccccc1
14%,1.0%,.,.,Cc1ccc(-n2nc(C)c3c2C(Br)C(C)(C)CC3=O)nc1 (stereo not given)
6%,-0.4%,.,.,Cc1cnc(NC(=O)c2cc(-c3ccccc3)nn2-c2ccccc2)s1
2%,1.1%,.,-4%,Cn1cc(S(=O)(=O)NCc2ccc(F)cc2)c(=O)n(C)c1=O
-5%,-3.2%,.,-11%,Cc1c(OC(C)C(=O)NCCN2CCOCC2)ccc2c3c(c(=O)oc12)CCC3 (stereo not given)
-5%,-2.1%,.,-40%,O=C(NCCc1ccccn1)c1ccc(OC2CCN(Cc3ccccn3)CC2)cc1
-2%,0.3%,2,-19%,COc1cc(NS(=O)(=O)c2ccc(Nc3nc(-c4ccccc4)cs3)cc2)nc(OC)n1
-19%,-0.3%,-4,-59%,C=CCNC(=O)CCc1nnc(C2(c3ccc(Cl)cc3)CCC2)o1
13µM*,?,4,-44%,CCO/C=C1\C(=O)N(c2ccccc2)C(=O)c2ccccc21
3%,1.1%,-12,11%,O=C1C(=O)N(Cc2ccccc2)C(=O)N1CCOc1ccccc1
?,?,.,-62%,O=C(O)c1cc(N/N=C/c2ccc(-c3ccc(F)cc3)o2)ccc1Cl
-11%,0.0%,.,9%,O=C(C1CCC(=O)N(C2CCCCCC2)C1)N1CCN(c2ccccc2Cl)CC1 (stereo not given)
-2%,2.6%,-3,-9%,O=C(CC1CCCC1)OCn1nnc2ccccc2c1=O
-23%,?,-1,1%,O=C(CC1C(=O)NCCN1Cc1ccccc1C(F)(F)F)NCCc1ccccn1 (stereo not given)
20%,0.5%,-2,1%,Cc1cc(NC(=O)CSc2nnc(C)c(=O)[nH]2)no1
3%,4.0%,1,-3%,CC(C)(C)NC(=O)COc1ccc(CNCCc2ccccc2)cc1
-4%,-3.2%,.,6%,CSc1nsc(SCC(=O)Nc2ccc(O)c(C(=O)O)c2)n1
-25%,-2.9%,1,-8%,COc1cccc(CNC(=O)C2CCN(S(=O)(=O)c3c(C)nn(C)c3C)CC2)c1
-8%,-2.4%,.,1%,CC(=O)Nc1ccc(S(=O)(=O)Nc2ccccc2C(=O)NCc2cccnc2)cc1
-13%,-5.4%,3,-18%,CC1CCN(C(=O)COc2ncnc3ccccc23)CC1
-5%,2.7%,.,.,CCOC(=O)c1[nH]c(C)c(C(=O)OCC(=O)NCc2ccc(Cl)cc2)c1C
?,?,-5,-1%,O=c1[nH]c(N2CCOCC2)nc2ncn(Cc3ccccc3)c12
9%,1.1%,4,1%,CCCCn1c(-c2sccc2C)n[nH]c1=S

# In another format: results already given.
Compound | Rango dissoc inh | Rango complex inh | GLA inh pH 4.5 | miR-21 reporter
CC(C)(C)NC(=O)COc1ccc(CNCCc2ccccc2)cc1 | 3% | 4.0% | 1 | -3%
CSc1nsc(SCC(=O)Nc2ccc(O)c(C(=O)O)c2)n1 | -4% | -3.2% | . | 6%
COc1cccc(CNC(=O)C2CCN(S(=O)(=O)c3c(C)nn(C)c3C)CC2)c1 | -25% | -2.9% | 1 | -8%
CC(=O)Nc1ccc(S(=O)(=O)Nc2ccccc2C(=O)NCc2cccnc2)cc1 | -8% | -2.4% | . | 1%
CC1CCN(C(=O)COc2ncnc3ccccc23)CC1 | -13% | -5.4% | 3 | -18%
